# CtBP-E1A inh: CtBP/E1A binding inhibition; 340,000 compounds, 0.49% hits; AlphaScreen GST-E1A/His-CtBP binding, 1536-well; hits give low values; control for the full effect not named in the record; activity change, % (no concentration beside the values); in the data active means activity change below about -65%; inconclusive means about -30% to -65%; inactive means above about -30%; also: % is scaled to controls: 0 for no effect and ±100 for the full control effect
#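 Steps: dispense buffer (Tris pH 8.0, NaCl 300 mM, TCEP 1 mM, BSA, Tween 20); add 5X protein mix (GST-E1A, His-CtBP, 125 nM each); pin 23 nL compound; 2 h at 37 °C, dark; add 5X beads (50 ug/mL); 1 h; read.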
# TRPML1 agonist: activates the human TRPML1 channel. TRPML1-expressing cells, Ca2+ dye fluorescence, FDSS; host cell line not named in the record; reference of the full effect not given here. activation, % (no concentration beside the values). 410,000 compounds, 0.12% hits. AID 624414; in the data active = activation above about 50%; inconclusive = about 30% to 50%; inactive = below about 30%; also: 0% is about no effect; the text of the record puts the active cut at 80%
# Target sequence (Q9GZU1 whole entry, looked up): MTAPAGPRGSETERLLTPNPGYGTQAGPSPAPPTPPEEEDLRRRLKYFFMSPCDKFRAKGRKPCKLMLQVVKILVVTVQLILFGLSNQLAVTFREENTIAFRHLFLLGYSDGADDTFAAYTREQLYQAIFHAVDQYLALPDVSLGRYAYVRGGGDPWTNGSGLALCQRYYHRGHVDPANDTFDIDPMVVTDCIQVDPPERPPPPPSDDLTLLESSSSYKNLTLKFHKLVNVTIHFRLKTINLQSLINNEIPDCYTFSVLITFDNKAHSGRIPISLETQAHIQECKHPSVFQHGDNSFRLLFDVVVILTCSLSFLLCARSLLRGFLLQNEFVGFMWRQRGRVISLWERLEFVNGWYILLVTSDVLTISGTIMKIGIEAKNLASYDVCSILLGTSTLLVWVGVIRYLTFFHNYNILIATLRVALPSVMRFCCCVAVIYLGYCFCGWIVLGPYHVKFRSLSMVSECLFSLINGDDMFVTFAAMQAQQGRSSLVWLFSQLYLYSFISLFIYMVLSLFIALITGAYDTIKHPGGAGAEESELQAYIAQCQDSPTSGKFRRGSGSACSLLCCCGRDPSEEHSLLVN
#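 Cells: TRPML1-DL, 1X Tet inducer, ~16 h at 37 degrees C/5% CO2. Dye: ABD Ca8 no-wash + quencher, 45-90 min RT. Read: 10 s baseline, compound add, 110 s agonist phase; 54-4 EC80 (4uM final), 110 s antagonist phase.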
# PINK1 modulator: changes PINK1 expression; PINK1 immunofluorescence, high-content cytometry, 24 h; Potency, µM (doses to about 76.6 µM), for the others: at the highest dose activation (PINK1 increase), most hits filed as activators; 410,000 compounds, 0.2% hits; AID 624263; active = well fitted activation curve with a large enough effect; inconclusive = small, poorly fitted or top-dose-only effect; inactive = flat fitted curve, though single readings scatter; cell line not stated here;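 also: potency is read from the fitted curve at half-maximal effect; % of control where 0% means no effect; nearly all actives have a fitted effect of over 65% in size; a mitochondrial uncoupler was the plate control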
#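 Decision-based qHTS: stable cells, 24 h exposure to five compound concentrations, CCCP as control. Fixed cells stained for PINK1 plus nuclear, mitochondrial and cell markers, cytometer read.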
# D2 potentiator: positive allosteric modulators of human D2 dopamine receptor. DiscoveRx D2 beta-arrestin cells, luminescence, 90 min; 100% = 57 uM dopamine signal. 360,000 compounds, 0.23% hits. potentiation, % (concentration not given with the values); active = potentiation of 50% or more; inconclusive = 30% to 50%; inactive = 30% or less;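 also: tested on top of an EC20 dose of dopamine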
# Target sequence (P14416 whole entry, looked up): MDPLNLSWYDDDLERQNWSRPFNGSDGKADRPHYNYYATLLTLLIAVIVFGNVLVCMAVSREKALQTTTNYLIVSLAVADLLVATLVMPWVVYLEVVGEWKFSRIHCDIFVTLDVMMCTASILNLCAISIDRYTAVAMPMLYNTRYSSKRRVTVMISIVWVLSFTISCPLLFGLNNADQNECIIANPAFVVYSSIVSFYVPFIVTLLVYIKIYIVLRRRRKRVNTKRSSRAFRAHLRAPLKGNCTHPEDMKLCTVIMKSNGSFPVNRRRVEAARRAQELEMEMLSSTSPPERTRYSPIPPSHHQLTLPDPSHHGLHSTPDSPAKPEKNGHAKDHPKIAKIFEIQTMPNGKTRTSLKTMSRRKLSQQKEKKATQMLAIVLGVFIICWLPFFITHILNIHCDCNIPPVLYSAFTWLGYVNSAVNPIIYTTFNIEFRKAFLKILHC
#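 D2 cells co-treated with compound plus 50 nM dopamine (EC20) for 90 min at 37 deg C to detect potentiation. Beta-arrestin recruitment was read as enzyme-fragment luminescence after 1 h at ambient temperature. Full response was set by 57 uM dopamine.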
# Six1-Eya2 blk: Six1/Eya2 interaction inhibition. Q15475+O00167. AlphaScreen GST-Six1/His-Eya2 binding, biochemical; hits give low values; control for the full effect not named in the record. activity change, % (test concentration not listed). 360,000 compounds, 0.56% hits. AID 651725; in the data active = activity change below about -65%; inconclusive = about -30% to -65%; inactive = above about -30%; also: % is scaled to controls: 0 for no effect and ±100 for the full control effect
#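 Six1/Eya2 binding was read as AlphaScreen signal after compounds were pinned into GST-Six1 plus His-tagged Eya2 (5X stock 250/500 nM) in pH 8.0 Tris/NaCl/TCEP buffer, beads added, then incubated 1 h, 37 C, dark.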
# D2 agonist: activates the human D2 dopamine receptor; AID 624465; 360,000 compounds, 0.084% hits; activation, % (test concentration not listed); P14416; DiscoveRx PathHunter D2 beta-arrestin, luminescence, 90 min; 100% = 57 uM dopamine signal; in the data active = activation above about 40%; inconclusive = about 15% to 40%; inactive = below about 15%; also: compound concentration not given in the record; the text of the record calls up to 30% inactive
#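 Agonist mode: compounds alone added to overnight-plated D2 PathHunter cells for 90 min at 37 C, with 57 uM final dopamine (EC100) defining full response. Beta-arrestin recruitment detected by chemiluminescent reagent, read after 1 h at ambient temperature.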
# Starred values were filed as active, the others as inactive; ? = inconclusive; . = no result given; [ ] = dose if it differs, or a comment.
SMILES,CtBP-E1A inh,TRPML1 agonist,PINK1 modulator,D2 potentiator,Six1-Eya2 blk,D2 agonist
O=C(COC(=O)/C=C/c1cccc(C(F)(F)F)c1)Nc1cccc(S(=O)(=O)NC2=NCCC2)c1,-1,-0.2,4.4%,-11,0,-1.1
C[C@H]1CN([C@@H](C)CO)C(=O)CCCn2nncc2CO[C@H]1CN(C)C(=O)c1ccccc1,0,1.3,-1.7%,-5,12,-1.6
C=CCSc1nc(O)c(C2OC(=O)c3c2ccc(OC)c3OC)c(=O)n1-c1ccccc1 (configuration not stated),-9,0.7,1.6%,-14,5,-5.2
Nc1nc(N2CCN(c3ccc(F)cc3)CC2)n[nH]1,.,-0.3,-0.2%,-4,10,1.6
CCOc1ccccc1NC(=O)CSCC(=O)Nc1ccccc1,3,2.3,-0.8%[38.3 µM],-13,0,0.5
COC(=O)CNC(=O)c1cc(-c2ccncc2)nc2c(C)c(Cl)ccc12,-18,-0.5,2.8%,-15,-1,-1.0
Cc1ccc(NC(=O)CSc2nnc(-c3ccco3)n2N)cc1F,-1,0.8,16%,-19,7,-5.0
CCCOc1ccc2[nH]c(C(=O)N/N=C/c3cc(OC)c(OC)c(OC)c3)cc2c1,1,0.1,5.0%,-3,-3,-1.2
CCn1c(SCC(=O)N2c3ccccc3CC2C)nnc1-c1ccco1 (configuration not stated),-1,-0.8,0.2%,-10,-5,-3.5
C=CCN(C(=O)CSc1nnnn1C)c1nc(-c2ccccc2)cs1,1,0.1,15%,17,-3,-1.3
COC(=O)C1=CN(Cc2ccc(F)cc2)C=C(C(=O)OC)C1c1cc(OC)c(OC)c(OC)c1,27,1.0,5.4%,-10,19,-4.9
O=C(CN1CCCC1)N1CCCc2c1c(=O)oc1ccc(OCc3ccccc3)cc21,23,-0.4,-19%[38.3 µM],-21,6,-2.8
COc1ccccc1NC(=O)C1CCCN(S(=O)(=O)c2ccc3c(c2)CC(C)N3C(C)=O)C1 (configuration not stated),-22,-1.7,-0.9%,-22,-4,8.4
COc1ccc(Cl)cc1C(=O)Nc1ccncc1,-1,0.0,-1.9%,-7,0,-1.0
Cn1ccc2c(-c3ccc(F)nc3)cc3c(c21)C1CCC3O1 (configuration not stated),-4,-0.1,0.2%,-2,-8,-4.3
C/C=C\C(=O)Nc1cccc(C2=NOC3(C2)C[C@H](C(N)=O)N(C(=O)/C=C/CC)C3)c1 (some centres not stated),3,-0.2,0.6%,0,-5,1.8
CC(=O)NN1C(=O)c2ccccc2NC1c1ccc(N(C)C)cc1 (configuration not stated),2,-0.3,5.1%,-8,5,-1.2
CCOc1ccc(N=C2NC(=O)S/C2=C\c2ccc(Cl)cc2)cc1,-8,0.7,2.6%,-34,-4,-4.0
COc1ccc(OCC(=O)NC(=S)N2CCCc3ccccc32)cc1,-7,-1.1,1.6%,6,-22,-2.9
CN(C)N1C(=O)CC(C)(c2ccc([N+](=O)[O-])cc2)C1=O (configuration not stated),7,-0.2,0.6%,-10,1,-2.9
CCC(C)c1ccc(NC(=O)C2=CC=CN3CCS(=O)(=O)N=C23)cc1 (configuration not stated),-14,0.9,5.1%,1,0,1.1
CCCCS(=O)CC(O)COc1ccc(C(C)(C)C)cc1 (configuration not stated),-20,0.9,-4.0%[38.3 µM],-11,-4,-2.4
FC(F)(F)c1cc(-c2cccs2)nc(NCc2ccco2)n1,9,3.7,1.8%,5,8,2.6
O=C(CSc1n[nH]c(-c2cc(Cl)ccc2Cl)n1)NCCN1C(=O)CSC1=O,-11,0.6,-0.1%,12,0,1.2
C=CCN1C(=O)C(Cc2ccccc2)SC1=Nc1ccc(C(=O)O)cc1 (configuration not stated),5,0.6,-2.4%,-12,5,1.1

# Some values from above.
# Six1-Eya2 blk with CCC(C)c1ccc(NC(=O)C2=CC=CN3CCS(=O)(=O)N=C23)cc1 (configuration not stated) → 0
# Six1-Eya2 blk with CN(C)N1C(=O)CC(C)(c2ccc([N+](=O)[O-])cc2)C1=O (configuration not stated) → 1
# CtBP-E1A inh with O=C(COC(=O)/C=C/c1cccc(C(F)(F)F)c1)Nc1cccc(S(=O)(=O)NC2=NCCC2)c1 → -1

# Returning to the listing, repeating the two entries before the break.
SMILES,CtBP-E1A inh,TRPML1 agonist,PINK1 modulator,D2 potentiator,Six1-Eya2 blk,D2 agonist
O=C(CSc1n[nH]c(-c2cc(Cl)ccc2Cl)n1)NCCN1C(=O)CSC1=O,-11,0.6,-0.1%,12,0,1.2
C=CCN1C(=O)C(Cc2ccccc2)SC1=Nc1ccc(C(=O)O)cc1 (configuration not stated),5,0.6,-2.4%,-12,5,1.1
COc1ccc(Cl)cc1N(CC(=O)Nc1ccccc1C(=O)NCc1ccco1)S(C)(=O)=O,-13,1.5,0.4%[38.3 µM],-3,-2,-0.9
CCOc1ccc(CN2CCC(n3nccc3NC(=O)c3ccccc3OC)CC2)cc1,-2,0.7,1.9%,-39,-3,-4.9
COc1ccc(NC(=O)NCc2ccco2)cc1OC,.,1.0,0.8%,24,-4,1.3
COC(=O)c1cc2c([nH]c1=O)CCCC2=O,0,-0.5,-0.1%,-7,-5,-1.8
CCNC(=S)Nc1ccc(C)c(S(=O)(=O)Nc2ccccc2OC)c1,0,1.0,1.4%,-1,-4,-3.0
CCCCn1c(N)c(N(CCOC)C(=O)C(C)N2C(=O)c3ccccc3C2=O)c(=O)[nH]c1=O (configuration not stated),-3,-0.4,-0.9%,-23,4,0.7
COc1cccc(CC(=O)OCC(=O)NC2CCCCCC2)c1,3,-0.7,-0.1%,7,6,-0.5
CC1(C)CC(=O)C(C=NCc2cccnc2)=C(O)C1,8,0.5,-1.1%,0,2,-1.4
Cc1ccc(C)c(-n2nnnc2SCC(=O)c2ccc3c(c2)NC(=O)CO3)c1,0,2.1,-0.3%,-6,-7,2.8
CCNc1nc(CN2CCCCC2)nc2scc(-c3ccccc3)c12,-1,-0.7,5.9%,-14,-6,-4.5
CCOP(=O)(c1ccccc1Cl)C1(O)CCCCC1 (configuration not stated),3,0.8,3.3%,-13,4,-1.8
O=S(=O)(c1ccc(Br)s1)N1CCCCC1,5,-0.1,.,-12,4,-0.3
CC(C)n1ncc2c(C(=O)NCc3cccnc3)cc(C3CC3)nc21,-10,2.0,-1.1%,-7,8,5.1
CCOC(=O)c1c(NC(=O)CCl)sc(CN(C)C)c1-c1ccccc1,-19,2.0,-1.9%,-23,10,-5.5
COc1ccccc1-c1sc2ccccc2c1-c1ccc(O)cc1,-3,0.5,7.2%,.,0,-1.1
O=C(COC(=O)C1CCN(S(=O)(=O)c2ccccc2)CC1)NC(=O)c1ccc(OC(F)F)cc1,0,-0.2,3.8%,-8,0,0.2
COc1ccc2[nH]c(CN3CCC(CO)(CCOc4ccccc4)CC3)c(C)c2c1,-10,-0.5,-2.1%,-13,-13,-2.1
O=C1C2=C(CCCC2)C(=O)N1CNc1ccccc1,.,-1.0,0.2%,-19,1,-4.8
COc1ccccc1OC(C)C(=O)N(Cc1ccco1)C1CCS(=O)(=O)C1 (configuration not stated),-13,-0.1,1.9%,-1,0,-5.5
CC(C)(C)NC(=O)CSc1nc(N)c(-c2ccccc2)c(=O)[nH]1,-7,0.0,-0.3%,-7,0,-2.0
O=C(COc1ccccc1Cl)Nc1ccccc1C(=O)N1CCOCC1,10,0.1,0.8%,-27,6,-4.7
O=C(CCN1N=C(c2ccccc2)CCC1=O)NCC1CCCO1 (configuration not stated),.,0.3,-2.3%,-7,8,-6.5
S=C(NCC1CCCCC1)Nc1ccc(Oc2ccccc2)cc1,-5,-0.1,?,7,-15,2.2
O=C1c2ccsc2SCCN1Cc1ccccc1Cl,2,2.8,0.7%,3,0,-3.1
Cn1c(Cc2ccc3c(c2)OCO3)nnc1SCC(=O)NC(C)(C)C,.,0.5,1.1%,-4,2,3.3

# The last 2 records of the part before open the next one.
SMILES,CtBP-E1A inh,TRPML1 agonist,PINK1 modulator,D2 potentiator,Six1-Eya2 blk,D2 agonist
O=C1c2ccsc2SCCN1Cc1ccccc1Cl,2,2.8,0.7%,3,0,-3.1
Cn1c(Cc2ccc3c(c2)OCO3)nnc1SCC(=O)NC(C)(C)C,.,0.5,1.1%,-4,2,3.3
[O-]C1=N[N+](=C(c2ccccc2)c2ccccc2)C1,0,-0.3,0.7%,-12,17,-0.8
O=C(Nc1ccc(Cl)cc1Cl)C1CCCO1 (configuration not stated),12,0.7,0.8%,12,5,-0.4
COc1ccc2c(c1)c(CC(=O)OCC(=O)O)c(C)n2C(=O)c1ccc(Cl)cc1,0,-0.4,1.2%,-12,-5,-1.5
CCCOc1ccc(CNC(=O)C2CCN(C(=O)N3CCOc4ccccc43)CC2)cc1,5,0.3,1.3%,-1,3,-4.3
COc1ccc(-c2nnn(CC(=O)NCc3ccccc3)n2)cc1OC,5,0.1,0.1%[38.3 µM],-6,1,-1.3
O=C(CSc1nc2ncc(Cl)cc2[nH]1)N1CCOCC1,0,-0.8,3.8%,-1,0,4.4
CCCC1CC(=O)NC1(C(=O)OCC)C(=O)OCC (configuration not stated),1,-0.1,0.6%,-3,0,-1.0
CC(=O)OCC1(C)CN(c2ccccc2)N(C(=O)c2ccc(F)cc2)C1=O (configuration not stated),.,0.5,-0.7%,-20,1,-9.9
Cc1cc(C)c2nc(N3CCCC(C(=O)NCCN4CCOCC4)C3)sc2c1 (configuration not stated),3,-0.1,3.8%[38.3 µM],-12,-1,-1.8
CCC1Oc2ccc(C)cc2N(CC(=O)N(Cc2ccc(C)o2)C2CC(C)(C)NC(C)(C)C2)C1=O (configuration not stated),-4,0.3,-2.0%,-31,-15,-2.7
O=C(O)c1ccc(S(=O)(=O)N2CCCCCCC2)cc1,3,-0.2,-0.2%,-3,5,0.0
C=CCN(Cc1cccs1)C(=O)COc1ccc2c(c1)OCO2,9,0.0,-0.4%,-11,-6,-2.1
N#Cc1nn(-c2ccccc2)nc1N1CCCCC1,14,3.5,7.0%,-14,38,-1.0
CC(=O)Oc1ccc2c3c(c(=O)oc2c1C)CCCC3,-18,-0.1,-1.4%,-4,-20,-0.1
N#Cc1cnn2ccn(C3OC(CO)C(O)C3O)c12 (configuration not stated),.,0.9,0.0%,13,13,-5.8
COCCCNc1ccn2nc(-c3ccc(CC(C)C)cc3)cc2n1,5,-0.1,4.0%,-1,8,6.9
CC(C)N(C(=O)NC(=O)Nc1ccc(S(=O)(=O)N2CCCC2)cc1)S(C)(=O)=O,4,-0.3,0.0%,-3,2,-1.4
COc1ccccc1CC(NC(C)=O)C(=O)NC1CCN(C(=O)Nc2ccccc2C)CC1 (configuration not stated),3,0.5,2.0%,-8,5,-7.5
CCC1CCCCN1C(=O)COC(=O)c1cc(C)nc2ccccc12 (configuration not stated),2,0.5,0.1%,0,0,-1.2
CCN(CC#CCC1(O)c2ccccc2-c2ccccc21)C(C)C,-4,1.3,-1.0%,-29,-2,-2.8
Cc1cc(C)n(CCNS(=O)(=O)c2ccc(C)c(C)c2)n1,7,0.1,1.7%,4,7,2.7
COc1cc(OC)nc(NC(=O)COC(=O)c2cccc(Cl)c2)n1,-8,0.8,1.1%,4,-10,-1.0
CCOC(=O)c1c(C)[nH]c(C)c1C(=O)COC(=O)c1ccccc1O,-1,0.4,14%,-17,-15,-4.3
COC(=O)C1=C(C)N(Cc2ccccc2)C(=NCCc2cccnc2)N[C@H]1c1ccc(Br)cc1,-10,1.1,-1.6%,-10,2,4.7

# High-throughput results: PubChem, National Center for Advancing Translational Sciences (NCATS)
